# Screening data from PubChem BioAssay.
# Six1-Eya2 inh: qHTS Assay for Inhibitors of the Six1/Eya2 Interaction | AlphaScreen GST-Six1/His-Eya2 binding, biochemical; stronger effect = lower value; control for the full effect not named in the record | activity change, % (test concentration not listed) | 0.56% of 360,000 active | AID 651725, 2012; in the data active = activity change below about -65%; inconclusive = about -30% to -65%; inactive = above about -30%; also: % is scaled to controls: 0 for no effect and ±100 for the full control effect; compound concentration not given in the record
# Target sequence (O00167 whole entry, looked up): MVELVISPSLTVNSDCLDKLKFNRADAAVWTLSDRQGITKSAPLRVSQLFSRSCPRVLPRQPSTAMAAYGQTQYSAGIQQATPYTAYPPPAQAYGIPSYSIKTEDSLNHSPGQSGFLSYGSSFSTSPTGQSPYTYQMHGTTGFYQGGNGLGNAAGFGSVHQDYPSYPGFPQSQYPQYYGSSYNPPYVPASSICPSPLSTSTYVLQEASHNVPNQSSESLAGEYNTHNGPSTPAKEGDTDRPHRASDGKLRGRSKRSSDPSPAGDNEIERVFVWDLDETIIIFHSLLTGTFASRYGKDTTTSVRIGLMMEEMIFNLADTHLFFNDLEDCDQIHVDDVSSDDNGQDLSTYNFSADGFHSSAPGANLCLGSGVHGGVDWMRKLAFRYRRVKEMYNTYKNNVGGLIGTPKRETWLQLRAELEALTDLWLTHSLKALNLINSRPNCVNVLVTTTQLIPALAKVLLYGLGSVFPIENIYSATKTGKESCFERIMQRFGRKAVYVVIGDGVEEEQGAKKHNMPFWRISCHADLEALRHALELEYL
# Target sequence (Q15475 whole entry, looked up): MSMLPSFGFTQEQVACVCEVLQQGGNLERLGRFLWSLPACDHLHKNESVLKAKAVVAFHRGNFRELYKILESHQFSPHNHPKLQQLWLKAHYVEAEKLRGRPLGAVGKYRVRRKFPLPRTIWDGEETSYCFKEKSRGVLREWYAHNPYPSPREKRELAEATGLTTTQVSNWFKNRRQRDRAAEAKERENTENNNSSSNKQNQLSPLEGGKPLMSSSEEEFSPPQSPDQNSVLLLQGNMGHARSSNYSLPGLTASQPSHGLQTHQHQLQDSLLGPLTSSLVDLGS
#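 AlphaScreen with GST-Six1 and His-Eya2 (5X mix: 250 nM and 500 nM), glutathione donor and nickel acceptor beads; buffer 50 mM Tris pH 8.0, 300 mM NaCl, 1 mM TCEP; 1 h at 37 C in the dark.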
# D2 ag: Beta-Arrestin HTS for Positive Allosteric Modulators of the Human D2 Dopamine Receptor: Agonists. D(2) dopamine receptor (Homo sapiens), P14416. DiscoveRx PathHunter D2 beta-arrestin, luminescence, 90 min; 100% = 57 uM dopamine signal. activation, % (no concentration beside the values). 0.084% of 360,000 active. AID 624465, 2012; in the data active = activation above about 40%; inconclusive = about 15% to 40%; inactive = below about 15%; also: compound concentration not given in the record; the text of the record calls up to 30% inactive
#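 Agonist mode: compounds alone added to overnight-plated D2 PathHunter cells for 90 min at 37 C, with 57 uM final dopamine (EC100) defining full response. Beta-arrestin recruitment detected by chemiluminescent reagent, read after 1 h at ambient temperature.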
# PINK1 modulator: A Quantitative High throughput Screen to Identify Chemical Modulators of PINK1 Expression; AID 624263, 2012; 0.2% of 410,000 active; PINK1 immunofluorescence, high-content cytometry, 24 h; Potency, µM (highest dose often 76.6 µM), for the others: top-dose activation (PINK1 increase), most hits filed as activators; active = well fitted activation curve with a large enough effect; inconclusive = small, poorly fitted or top-dose-only effect; inactive = flat fitted curve, though single readings scatter; cell line not stated here;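 also: potency is read from the fitted curve at half-maximal effect; % of control where 0% means no effect; nearly all actives have a fitted effect of over 65% in size; a mitochondrial uncoupler was the plate control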
#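 A stable cell line was treated with compounds at 5 concentrations for 24 hours, with CCCP as control. PINK1 levels and mitochondrial localization were measured by immunofluorescence with mitochondrial, cell and nuclear markers after fixation, read by laser-scanning cytometry.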
# Sfp inh: qHTS Assay for Inhibitors of Bacillus subtilis Sfp phosphopantetheinyl transferase (PPTase). 4'-phosphopantetheinyl transferase ffp (Bacillus subtilis), Q9F4F7. Biochemical Sfp PPTase activity, qHTS. Potency, µM, for the others: max response, negative = inhibition, most hits filed as inhibitors. 3.5% of 310,000 active. AID 1490, 2009; active = well fitted inhibition curve with a large enough effect; inconclusive = small, poorly fitted or top-dose-only effect, or another doubt; inactive = no such curve, though single readings can be large or run the other way;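 also: the enzyme is Sfp with the accession as filed and its product quenches rhodamine fluorescence; potency is read from the fitted curve at half-maximal effect; 0% = enzyme reaction without inhibitor and -100% = no enzyme wells; top concentration of the series not given in the record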
#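 With Hepes-Na pH 7.6 buffer containing 10 mM MgCl2, Sfp (15 nM) modified BHQ-2-YbbR (12.5 uM) using rhodamine-CoA (5 uM). Two reads 30 minutes apart at 525/598 nm yielded each well's rate.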
# TRPV1 potentiator: HTS Assay for Compounds that Act as Potentiators of the Vanilloid Receptor 1. potentiation, % at 8.33 µM. TRPV1-expressing cells, Fluo-8 calcium influx, capsaicin EC20 potentiation; host cell line not named in the record; control for the full effect not named in the record. AID 540277, 2011. 0.02% of 320,000 active. Transient receptor potential cation channel subfamily V member 1 (Homo sapiens), Q8NER1; active means potentiation above 80%; inconclusive means 30% to 80%; inactive means below 30%; also: 0% is about no effect
#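 TRPV1-expressing cells were cultured overnight at 35.5C and loaded with Fluo-8 calcium dye for 40 to 90 min at room temperature. After a 10 s baseline, compound was added and calcium influx was read kinetically for 3 min (ex 480/em 520 nm).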
# D2 PAM: Beta-Arrestin HTS for Positive Allosteric Modulators of the Human D2 Dopamine Receptor: Potentiators; DiscoveRx D2 beta-arrestin cells, luminescence, 90 min; 100% = 57 uM dopamine signal; potentiation, % (concentration not given with the values); D(2) dopamine receptor (Homo sapiens), P14416; 0.23% of 360,000 active; active = potentiation of 50% or more; inconclusive = 30% to 50%; inactive = 30% or less;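 also: compound concentration not given in the record; tested on top of an EC20 dose of dopamine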
#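 PathHunter D2 cells, attached overnight at 37 deg C, received compound in DMSO plus dopamine at EC20 (50 nM final) for 90 min at 37 deg C. Beta-arrestin recruitment was read as luminescence after 1 h with detection reagent at ambient temperature.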
# CtBP-E1A inh: qHTS Assay for Inhibitors of the CtBP/E1A Interaction | AlphaScreen GST-E1A/His-CtBP binding, 1536-well; stronger effect = lower value; control for the full effect not named in the record | 0.49% of 340,000 active | CtBP / adenovirus E1A interaction (AlphaScreen) | activity change, % (no concentration beside the values) | AID 651724, 2012; in the data active means activity change below about -65%; inconclusive means about -30% to -65%; inactive means above about -30%; also: % is scaled to controls: 0 for no effect and ±100 for the full control effect; compound concentration not given in the record
#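 Protein mix (5X: 125 nM each GST-E1A, His-CtBP) was incubated with pinned compound 2 h at 37 deg C in dark, in 50 mM Tris pH 8.0 buffer with 300 mM NaCl. Glutathione donor and nickel acceptor beads followed; AlphaScreen signal read after 1 h.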
# * hit, by the source's call; ? = inconclusive; / = no result given; & = joins results of further samples; [ ] = remark or other dose.
Structure,Six1-Eya2 inh,D2 ag,PINK1 modulator,Sfp inh,TRPV1 potentiator,D2 PAM,CtBP-E1A inh
COc1cc(SC)ccc1C(=O)OCC(=O)NCCNC(=O)COC(=O)c1ccc(SC)cc1OC,-5,-4.4,5.7%,4%,-14,-15,4
CC(C)C[C@H](NC(=O)c1nc[nH]c1C(=O)N[C@@H](CCCCNC(=O)OC(C)(C)C)C(=O)OC(C)(C)C)C(=O)OCc1ccccc1,-13,-3.1,3.4%,16%,24,-20,-7
O=C(NNC(=O)c1ccc([N+](=O)[O-])cc1Cl)c1ccncc1,5,-1.1,-1.3%,3%,28,9,-18
CCn1c(SCC(=O)Nc2ccc3c(c2)OCO3)nc2c1c(=O)n(C)c(=O)n2C,-6,-2.2,2.4%,18%,5,-3,-1
O=C(CN(c1ccc2c(c1)OCCO2)S(=O)(=O)c1ccccc1)Nc1ccc2c(c1)OCO2,-10,-3.0,1.6%,6%,10,-29,-13
Cc1c(C(c2cccc(Br)c2)c2c(C)n(C)n(-c3ccccc3)c2=O)c(=O)n(-c2ccccc2)n1C,-2,-2.9,0.6%,-9%,3,-1,4
Cc1ccc(CNC(=O)C2CCCN(C(=O)Nc3ccc(F)cc3)C2)cc1 (stereo not given),-2,-1.7,-0.1%,1%,-5,3,6
O=C(NN1C(=O)C2C3c4ccccc4C(c4ccccc43)C2C1=O)c1ccccc1 (stereo not given),8,-2.9,9.4%,25%,-9,-7,-6
O=C(c1ccco1)N1CCCC(c2nc3c(nnn3Cc3c(Cl)cccc3Cl)c(=O)[nH]2)C1 (stereo not given),-6,2.8,-0.4%,-4%,0,-10,-5
CC(=O)Nc1ccc(NC(=O)COC(=O)C2c3ccccc3Oc3ccccc32)cc1,10,-1.5,1.4%,-10%,8,1,3
CCOC(=O)c1ccc(N2C(=O)[C@@H](c3ccccc3)[C@H]2c2ccccc2)cc1,1,-1.8,0.5%,/,-1,-8,-1
COc1ccc(N(C(=O)C(C)C)S(=O)(=O)c2ccc(Cl)cc2)cc1,2,-3.1,-3.3%[38.3 µM],3%,9,-9,1
O=C(Nc1c2c(nn1-c1ccccc1)CSC2)c1ccc(N2C(=O)CCC2=O)cc1,1,-5.9,-0.1%,13%,-7,-3,/
CCSc1nnc(N2C(=O)c3ccc(C(=O)c4ccc(C(=O)O)cc4)cc3C2=O)s1,-6,-5.4,3.0%,26%,0,-3,-7
CCOC(=O)c1nc(C)nc(Sc2n[nH]c(-c3cc(C(F)(F)F)cc(C(F)(F)F)c3)n2)c1C,0,-4.1,?,44%[activator],28,-3,-2
C=CCNC(=O)c1ccccc1NC(=O)C1CCN(S(=O)(=O)c2ccc(SC)cc2)CC1,-3,-4.4,1.9%,-7%,-3,-9,0
CC(=O)N(C)c1ccc(N=C2C(=O)Nc3ccccc32)cc1,-4,-15,-0.8%,2%,0,-25,-20
O=c1cc(N2CCN(c3ccccc3F)CC2)[nH]c(=O)n1-c1ccc(Br)cc1,9,-6.4,1.3%,9%,-30,-3,-9
CCc1sc(C(=O)N2CCCN(C)CC2)cc1Br,5,-5.1,-1.5%,3%,6,-19,-1
COc1ccccc1OCC(O)Cn1c(=N)n(Cc2ccccc2)c2ccccc21 (stereo not given),-7,-2.7&-3.9,-3.1%,-12%,15,-18,-2
Cc1ccc(SCC(=O)N2N=CCC2c2ccccc2)cc1 (stereo not given),3,2.6,-0.5%,13%,8,-6,-2
CC1=C(C(=O)Nc2ccc(C)cc2C)C(c2ccc(Cl)cc2)n2nc(C(=O)OC(C)C)nc2N1 (stereo not given),-7,-4.8,?,-2%,-5,-11,15
CCCN(CC(=O)Nc1ccccc1OC)C(=O)CCNC(=O)c1ccccc1OC,2,2.5,-0.6%,/,28,-6,4
CNC(=S)N1CCN(c2nc(-c3cccc(OC)c3)cs2)CC1,-14,-2.5,0.4%,11%,-8,-5,-21

# Next section; it opens with the three that closed the last part.
Structure,Six1-Eya2 inh,D2 ag,PINK1 modulator,Sfp inh,TRPV1 potentiator,D2 PAM,CtBP-E1A inh
CC1=C(C(=O)Nc2ccc(C)cc2C)C(c2ccc(Cl)cc2)n2nc(C(=O)OC(C)C)nc2N1 (stereo not given),-7,-4.8,?,-2%,-5,-11,15
CCCN(CC(=O)Nc1ccccc1OC)C(=O)CCNC(=O)c1ccccc1OC,2,2.5,-0.6%,/,28,-6,4
CNC(=S)N1CCN(c2nc(-c3cccc(OC)c3)cs2)CC1,-14,-2.5,0.4%,11%,-8,-5,-21
Cc1ccc(-c2csc(NC(=O)c3c(C)noc3C)n2)s1,-8,-0.2,9.7%,/,/,-5,4
Nc1nc(SCc2ccccc2)[nH]c(=O)c1-c1ccccc1,-1,0.3,-3.8%[38.3 µM],-3%,18,-7,5
COc1ccc(C=NNC(=S)NN=Cc2ccc(OC)c(OC)c2)cc1OC,-21,6.1,-1.3%,/,/,7,?
Cc1[nH]nc2c1C(c1cccnc1)N(c1ccc(Br)cc1)C2=O (stereo not given),-2,3.1,-2.6%,-4%,-66,-12,-5
CC1=NN(C(N)=S)C(=O)C1N=Nc1ccc(Br)cc1 (stereo not given),-4,-5.4,0.2%,9%,-4,-6,-9
COc1cc(/C=N/NC(N)=O)ccc1OCC(=O)N1C(C)CCCC1C (stereo not given),-2,-4.0,-0.4%,11%,14,10,1
COc1ccccc1/C=C/C=N/n1c(-c2ccco2)n[nH]c1=S,-2,-9.4,0.0%,?,/,-10,-1
CC(NC(=O)Cc1ccc(-c2ccccc2)cc1)c1ccccc1 (stereo not given),4,0.3,4.9%,?,21,-29,7
O=C([C@@H]1CCCN1C(=O)c1cccs1)N1CCN(S(=O)(=O)c2cccc(F)c2)CC1,26,2.6,1.7%,/,-6,1,5
Cn1cc(/C=C2\SC(=S)N(NC(=O)c3ccccc3Cl)C2=O)c2ccccc21,-13,-3.0,0.3%,8%,8,-9,-6
Cc1nc2ccc(NC(=O)Cc3ccsc3)cc2s1,4,-0.8,-1.3%,0%,2,-11,-5
CC(C)(C)c1ccc(-c2nc(C#N)c(NCCCn3ccnc3)o2)cc1,-7,-11,3.0%,-25%,-10,-8,-15
CCOC(=O)C1(CCOC)CCN(C(=O)Cc2ccsc2)CC1,4,-2.3,0.7%,12%,3,-3,6
Cc1ccc(S(=O)(=O)N(CC(=O)c2ccccc2)C(=O)N2CCN(C)CC2)cc1,3,1.2,3.3%,/,-2,7,-8
CC1CCN(S(=O)(=O)c2ccc3[nH]c(=O)c(=O)[nH]c3c2)CC1,2,1.4,-1.4%[38.3 µM],31%[activator],-2,-1,4
CCOc1cccc(CNCc2ccc(C(=O)O)cc2)c1,0,-2.0,2.4%,-4%,-8,1,7
COc1cccc(-n2nnnc2S(C)(=O)=O)c1,-11,-4.6,-1.5%,-27%,11,-38,6
O=C(Cc1cccc(NC(=O)C2CCCN(C(=O)C3CCCCC3)C2)c1)Nc1cccc(C(=O)N2CCCC2)c1 (stereo not given),1,2.3,0.8%,/,-19,16,5
Cc1ccc(C)c(-n2cc(CNCCc3cnccn3)c(-c3ccccc3)n2)c1,0,0.8,-0.7%,1%,-1,-21,/
COc1ccc(NC(=O)CSc2nnc3ccc(-c4ccccn4)nn23)cc1,2,-5.5,5.1%,/,-10,-28,1
O=C1CC(=O)N(Cc2ccco2)C(=O)N1,?,0.1,2.0%,50µM*,2,-7,5
CCOC(=O)C1C(c2ccc(O)c(OC)c2)NC(=S)NC1(O)C(F)(F)F (stereo not given),-4,-2.7,0.7%,-2%,8,-8,/
CC(C)c1ccc(-c2nnn(CCC#N)n2)cc1,7,0.3,1.3%,4%,-9,-5,6
C/C(=N\NS(=O)(=O)c1c(C)cc(C)cc1C)c1ccncc1,1,-2.4,0.6%,-20%,-1,-6,9
O=C(CSc1ccccc1)N[C@@H](Cc1ccccc1)C(=O)O,7,-2.8,2.8%,10%,2,-8,-4
CCN(C(=O)CSc1nc(N)cc(N)n1)C1CCS(=O)(=O)C1 (stereo not given),3,-4.3,-1.5%,16%,-3,-12,0
COc1ccc(Cl)cc1S(=O)(=O)N1CCN(c2ccc(F)cc2)CC1,-7,-1.4,-0.5%,8%,-4,3,-7
O=C1OC(C(=O)Nc2nccs2)Cc2ccccc21 (stereo not given),0,-4.1,4.8%,-8%,3,-1,-1
O=C(c1cccnc1)N1CCN(S(=O)(=O)c2ccc(S(=O)(=O)N3CCCC3)cc2)CC1,-7,4.2,-0.7%[38.3 µM],16%,1,-2,-9
Cc1cc(C(=O)NC(C)c2ccccc2)c2cc(F)ccc2n1 (stereo not given),4,-1.1,1.1%,21%,-1,12,/
Cc1ccccc1NC(=O)C(=O)c1cn(C)c2ccccc12,3,1.2,3.6%,25%,-2,-9,17
COc1ccc(N2CCN(C(=O)c3ccc(OCC4CCCO4)cc3)CC2)cc1 (stereo not given),-3,-2.1,0.2%,-16%,-14,-19,2
Cc1ccc(NC(=O)CCC(=O)NNC(=O)c2cccs2)cc1C,-1,-2.0,0.9%[38.3 µM],17%,-19,-6,-1
COC(=O)[C@@]1(Cc2ccc(F)cc2)[C@H]2c3cc(C(=O)N4CCCC4)n(CC4CC4)c3C[C@H]2CN1C(=O)c1ccccc1,-17,/,2.4%,-20%,/,/,0
O=C(NCc1cccs1)C1CC(=O)N(c2ccc(F)cc2)C1 (stereo not given),5,-1.3,-0.7%,15%,/,-11,-1
